Screening data (PubChem)
Sa helicase inh – blocks Staphylococcus aureus DNA helicase; purified S. aureus helicase, fluorescence unwinding assay; about half of the hits fall short of the stated cut; inhibition, %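 (tested at about 80 µM)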; 120,000 compounds, 0.05% hits;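 active = both duplicates at 50% or more, or one of them with a favoured structure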;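 also: 0% = mean of negative control wells and 100% = mean of positive control wells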
MgrA-DNA mod – alters Staphylococcus aureus MgrA binding to DNA | fluorescence polarization | inhibition, %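 (about 10 µg/mL by stock and volumes)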 | 84,000 compounds, 0.13% hits;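 active = above 50% in either of two replicates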;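 also: 0% = protein plus DNA without compound and 100% = DNA alone without protein; higher means less MgrA bound to DNA so lower polarization; one replicate is shown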
* marks the source's active call; other numbers are inactive results; . = no result given. These rows are one share of the data, so the mix of outcomes need not match the whole.

Sa helicase inh	MgrA-DNA mod	structure
-2	.	C=CCC(Nc1ccc(F)cc1)c1ccco1 (stereo not drawn)
-27	.	O=C(Nc1ccccc1)c1ccc(N2C(=O)C3C4C=CC(C4)C3C2=O)cc1 (stereo not drawn)
-17	1.3	O=C(COC(=O)c1cc(C(F)(F)F)cc(C(F)(F)F)c1)NCC1CCCO1 (stereo not drawn)
.	-0.4	CCOc1ccc(C(=O)Nc2ccc(Cl)c(-c3nc4ccccc4o3)c2)cc1Br
6	0.4	COC(=O)c1sc(=S)n(-c2cccc(C)c2)c1N
18	2.0	COc1ccc(OC(C)C(=O)Nc2cccc(C)n2)cc1 (stereo not drawn)
5	.	Clc1cccc(/C=N/n2c(-c3cccs3)csc2=NCCN2CCOCC2)c1
.	3.1	COc1ccc(C2CC(=O)C3=C(C2)NC(C)=C(C(=O)OCCOc2ccccc2)C3c2cccc(O)c2)cc1 (stereo not drawn)
.	2.9	O=C(NCC1CCCO1)c1ccc(N2CCOCC2)nc1 (stereo not drawn)
9	0.8	OC(C#CCN1CCOCC1)c1cccs1 (stereo not drawn)
-24	.	N=C(N)Sc1cn(CCNC(=O)c2ccccc2)c2ccccc12
6	.	CCOC(=O)N1CCN(C(=O)/C=C/c2c(C)nn(-c3ccc(F)cc3)c2Cl)CC1
-21	.	COc1ccccc1-c1csc(N)n1
-18	.	Cn1ncc(C(N)=O)c1N
0	.	CC1(C)C(=O)Nc2ccccc2N1C(=O)COC(=O)c1ccc(S(=O)(=O)N2CCCC2)cc1
23	.	COC(=O)C12CC3(C)CC(C)(CC(C)(C3)C1)C2
5	-3.8	Cc1noc(C)c1Cc1c(C(=O)O)noc1C
0	.	CCOC(=O)Cn1nc2n(Cc3ccc(C)cc3)c3ccccc3n2c(=O)c1=O
15	.	Cn1nnc2c([nH]c3ccccc32)c1=O
.	-0.3	Cc1csc2c(N3CCCCC3)ncnc12
11	-0.6	COC(=O)C1=CN(CCc2ccccc2)C=C(C(=O)OC)C1C(=O)OC
-13	.	CCN(Cc1nc2ccccc2c(=O)[nH]1)Cc1nc2cc(OC)c(OC)cc2c(=O)[nH]1
.	24	CCOC(=O)C1=C(N)CC(C(=O)OCC)=C(N)C1
29	.	COc1ccc(CN2C(=O)c3[nH]nc(-c4ccccc4O)c3C2c2ccc(O)cc2)cc1 (stereo not drawn)
21	-0.9	O=C(C1=C(O)C(=O)N(CCc2ccccc2)C1c1ccccc1)c1cccs1 (stereo not drawn)
.	0.8	CCOC(=O)c1cnn(C(=O)COc2ccc(C(C)(C)C)cc2C(C)(C)C)c1N
2	2.3	CCc1ccccc1N(CC(=O)NC)S(C)(=O)=O
2	1.8	CCCC(=O)Oc1ccc2c(C)cc(=O)oc2c1
6	1.1	Cc1cc(N2CC(C)CC(C)C2)nc2ccc(NC(=O)CCC(=O)N3CCCC3)cc12 (stereo not drawn)
15	-2.2	CSc1ccccc1C(=O)NC(C)C
7	.	O=C(OCc1nc2sc3c(c2c(=O)[nH]1)CCCC3)c1cc2c(s1)CCC2
21	-2.6	COC(=O)C1=CN(CCCN2CCCC2=O)C=C(C(=O)OC)C1c1cccs1
.	0.4	CN(C)CC/C=C1/c2ccccc2COc2ccccc21
.	0.4	Cc1[nH]n(-c2cccc(Cl)c2)c(=O)c1N=Nc1cccc(C(F)(F)F)c1
-12	.	c1ccc2c(c1)C(=NCC1CCCO1)NC2=NCC1CCCO1 (stereo not drawn)
-32	.	COc1ccccc1-c1nnc(Cc2ccc(F)cc2Cl)o1
-17	.	Cc1ccc(C2NC(=O)c3c(sc4c3CCC(C(C)(C)C)C4)N2)o1 (stereo not drawn)
-15	2.6	Nc1nc(Cl)cc(N2CCCCC2)n1
.	-1.5	CCNc1nc(NCC)nc(OCCNC(=O)COc2ccc(Cl)cc2Cl)n1
2	.	Cc1oc(-c2ccccc2)nc1C(=O)OC(C)c1nc2sc(C)c(C)c2c(=O)[nH]1 (stereo not drawn)
11	.	Cn1cc(C(=O)NCCN2CCN(Cc3ccccc3)CC2)c2c3ccccc3n(C)c2c1=O
.	-1.8	CCOC(=O)C1=C(C)N=c2s/c(=C\c3ccc(OC)c(OC)c3)c(=O)n2C1c1ccc2c(c1)OCO2 (stereo not drawn)
-4	.	CCN(CC)S(=O)(=O)c1ccc(C(=O)N2CCN(Cc3ccccc3)CC2)cc1
.	-1.4	O=C(NCc1ccccc1)c1cc2sccc2s1
-23	-1.6	O=C(Nc1nccs1)c1ccccc1C(F)(F)F
7	-1.2	COc1ccc2c(c1)NC(=O)CC(C)(C)O2
4	0.6	Cc1ccc(-n2cnc3cc(NCc4cccs4)ccc32)cc1
-9	.	Cc1ccc(-c2nn(CC(N)=O)c(=O)c3ccccc23)cc1
-1	.	CCOC(=O)Nc1ccc2c(COC(=O)c3oc4ccc(Br)cc4c3C)cc(=O)oc2c1
-12	.	O=C(Cc1ccc(Cl)cc1Cl)NC1CC1
-11	.	Cc1cccn2c(=O)c(C=NCc3ccco3)c(Nc3ccc(Cl)cc3)nc12
-43	.	O=C(NN=C1CCCC1)c1cccnc1
-43	.	COCCCn1c(=O)/c(=C\c2ccc(Br)cc2)s/c1=C(/C#N)C(=O)NCc1ccco1
8	-2.9	CC1(C)CC(=O)c2cc(-c3ccccc3)n(CC(=O)O)c2C1
9	1.6	N#CC1=C(N)N2C(=C(C#N)C13CCCC3)Nc1ccccc12
13	3.8	COC(=O)c1cc(NC(=S)NN(C)C)ccc1Cl
12	.	Cc1ccc(S(=O)(=O)N(Cc2nc(-c3ccccc3)no2)C2CCCCC2)cc1
.	1.3	O=C1Nc2ccc(Br)cc2C1O (stereo not drawn)
6	2.2	O=C(NC1CCCCC1)c1cccc(S(=O)(=O)NCc2ccccc2)c1
12	0.4	Oc1ccc(Cl)cc1Sc1cc(Cl)ccc1O

Later entries.
Sa helicase inh	MgrA-DNA mod	structure
-2	0.4	CCc1ccccc1NC(=O)c1c[nH]c2ccccc2c1=O
18	.	COc1ccc(C(=O)COC(=O)c2ccc(N(C)C)cc2)cc1
4	.	Nc1ccc(Cc2nc3ccccc3s2)cc1
.	-2.2	CNC(=O)Cc1c(Cl)sc2ccccc12
5	.	O=c1ccc(S(=O)(=O)N2CCCC2)cn1Cc1cc(=O)n2cc(Br)ccc2n1
6	1.1	COc1cccc(CNCc2ccccc2)c1
21	-1.1	O=C(Nc1cnn(Cc2ccc(Cl)cc2)c1)c1ccccc1
25	.	CN(CC(=O)N1CCc2ccccc2C1)S(=O)(=O)c1cnc[nH]1
.	0.0	C/[N+]([O-])=C\C1C(=O)CCCC1=O
.	0.7	CC(=O)OCC(=O)[C@@]1(O)CCC2C3CCC4=CC(=O)CC[C@]4(C)C3[C@@H](O)C[C@@]21C (stereo partly drawn)
4	0.3	COC(=O)C1C(C(C)C)N(c2ccccc2)OC1(C)O (stereo not drawn)
.	-1.6	O=C(Nc1ccccc1)OCC#Cc1ccc(-c2ccccn2)s1
33	.	O=C(NCc1ccccc1)c1nnc(-c2ccc3c(c2)OCO3)o1
-8	.	CCCN(CC(=O)Nc1ccccc1C)C(=O)c1cc(=O)[nH]c2ccccc12
10	0.4	Cc1ccc(NC(=O)/C(CN(C)C)=N\O)cc1
-3	.	Cc1nnc(SCC(=O)Nc2ccc3[nH]c(=O)[nH]c3c2)n1-c1ccccc1
-32	.	NC(=S)c1ccccc1N
12	-3.0	Cc1cccc(-n2c3nc(=O)[nH]c(=O)c-3cc3ccccc32)c1
2	1.9	CC1(C)Cc2c(sc(/N=C/N3CCCC3)c2C#N)C(C)(C)N1
28	-1.4	Cc1nn(CCO)c(C)c1Oc1ccccc1O
7	.	Cc1nc2sc(C(c3ccccc3)N3CCc4ccccc4C3)c(O)n2n1 (stereo not drawn)
-3	-0.3	Cc1oc(C2CC2)cc1C(=O)O
.	-0.5	COc1cc(C=Nc2ccc(Cl)cc2)ccc1OC(=O)/C=C/c1cccs1
14	.	O=C(OCn1nnc2ccccc2c1=O)c1cccc(S(=O)(=O)N2CCCCC2)c1
-10	.	c1nc(NCCN2CCOCC2)c2ccsc2n1
12	.	CCN(CC)S(=O)(=O)c1ccc(C2CNC(=O)C2)cc1 (stereo not drawn)
36	.	CCCn1c(NCc2ccc(Cl)cc2)nc2ccccc21
-37	.	COc1cc(C2CC(=O)n3nc(-c4ccccc4)nc3S2)cc(OC)c1OC (stereo not drawn)
7	-1.7	CCN1C(=O)C[C@@H](C(=O)O)[C@@H]1c1ccc(OC)cc1OC
-1	-2.8	Cc1cc(C)n(CCCC(=O)O)n1

Reprinted from the results shown (two entries):
Sa helicase inh	MgrA-DNA mod	structure
-3	.	Cc1nnc(SCC(=O)Nc2ccc3[nH]c(=O)[nH]c3c2)n1-c1ccccc1
-32	.	NC(=S)c1ccccc1N

The listing continues:
Sa helicase inh	MgrA-DNA mod	structure
29	.	O=C(Cn1c(=O)c2cccn2c2ccc(F)cc21)N1CCc2ccccc21
13	-1.8	O=c1oc(-c2cccc(C(F)(F)F)c2)nc2ccccc12
-2	.	O=C(c1c[nH]c2ccccc12)C(Sc1nnc(C2CC2)o1)c1ccccc1 (stereo not drawn)
0	-1.9	CCOC(=O)C1=C(C2CC=CCC2)NC(=S)NC1C (stereo not drawn)
1	-0.4	CC(=O)Nc1cc2c(nc1C)nc(C)n2Cc1ccc(Br)cc1
2	-0.5	COc1ccc(NC(=O)C(C)Sc2nc(N)cc(=O)[nH]2)cc1 (stereo not drawn)
-5	.	NC(=O)Cn1c(CN2CCCC2c2nc3ccccc3s2)nc2ccccc2c1=O (stereo not drawn)
4	-3.1	COC(=O)C(C(=O)OC)=C1C2CC3CC(C2)CC1C3
6	4.2	O=C1CCC(=O)N1CCOP1(=O)COc2ccccc2OC1
23	5.0	COc1ccccc1OC(C)C(=O)NCc1ccccc1 (stereo not drawn)
-2	1.2	CC(C)c1ccccc1NC(=O)c1cc2ccccc2oc1=O
-17	.	Cc1ccc(NC2SC(=O)N(c3ccc(C)cc3)C2=O)cc1 (stereo not drawn)
-41	.	Cc1ccc(-n2nnnc2-c2c[nH]c3cc(Cl)ccc23)cc1
-11	.	Cc1ccc(Cn2ccsc2=NC(=O)CSc2nnc(-c3cccnc3)n2N)cc1
-18	.	Cc1c(C(=O)CSc2n[nH]c(=O)n2Cc2ccco2)sc2ccc(Cl)cc12

Among those listed so far, 2 have a tert-butyl group:
Sa helicase inh	MgrA-DNA mod	structure
.	0.8	CCOC(=O)c1cnn(C(=O)COc2ccc(C(C)(C)C)cc2C(C)(C)C)c1N
-17	.	Cc1ccc(C2NC(=O)c3c(sc4c3CCC(C(C)(C)C)C4)N2)o1 (stereo not drawn)

Remaining list, next part.
Sa helicase inh	MgrA-DNA mod	structure
6	.	COc1cccc(CC(=O)Nc2nccs2)c1
-6	.	Cc1cc(C(=O)Nc2ccc3nc(C)sc3c2)c(C)o1
.	-2.9	Cc1ccc(Cl)cc1N1C(=O)CC(Sc2ccccc2N)C1=O (stereo not drawn)
4	.	CCN1CCN(CCCNC(=S)Nc2ccc3nc(N4CCN(CC)CC4)cc(C)c3c2)CC1
3	-1.3	CN(C)c1ccc(C2CC(c3ccc(Br)cc3)=NN2S(C)(=O)=O)cc1 (stereo not drawn)
9	.	COc1ccc(CNC(=O)C(C)Sc2nnnn2C)cc1 (stereo not drawn)
.	2.9	CC(=O)c1ccccc1OC(=O)c1ccccc1Cl
2	6.7	CC1(C(=O)NN)NC2(CCCCC2)Cc2ccccc21 (stereo not drawn)
15	4.0	COc1cc(/C=C\C(=O)OCn2nnc3ccccc3c2=O)cc(OC)c1OC
18	.	CCN(CC(=O)Nc1cc(C)c2c(=O)oc3ccccc3c2n1)Cc1ccccc1
5	0.1	O=C(O)c1cc2nc3c(c(C(F)(F)F)n2n1)CCC3
7	.	Cc1ccc(C)c(NC(=S)NCCCO)c1
-15	3.0	CC1(C)C2CCC1(C)C(NCc1ccccc1)C2 (stereo not drawn)
-21	.	CC(=O)NC(C)c1nc2ccccc2n1Cc1ccccc1F (stereo not drawn)
.	2.1	Nc1cc(-c2cccc(Cl)c2)nn1-c1ccc(S(N)(=O)=O)cc1

Complete entries, quoted from the list.
Shown for Cc1cc(C)n(CCCC(=O)O)n1 → Sa helicase inh = -1; MgrA-DNA mod = -2.8
Shown for O=C(Nc1cnn(Cc2ccc(Cl)cc2)c1)c1ccccc1 → Sa helicase inh = 21; MgrA-DNA mod = -1.1

Molecules from the list above that contain a COOH group (6):
Sa helicase inh	MgrA-DNA mod	structure
5	-3.8	Cc1noc(C)c1Cc1c(C(=O)O)noc1C
8	-2.9	CC1(C)CC(=O)c2cc(-c3ccccc3)n(CC(=O)O)c2C1
-3	-0.3	Cc1oc(C2CC2)cc1C(=O)O
7	-1.7	CCN1C(=O)C[C@@H](C(=O)O)[C@@H]1c1ccc(OC)cc1OC
-1	-2.8	Cc1cc(C)n(CCCC(=O)O)n1
5	0.1	O=C(O)c1cc2nc3c(c(C(F)(F)F)n2n1)CCC3

The listing continues.
Sa helicase inh	MgrA-DNA mod	structure
21	5.2	CCCN(CCC)C(=O)c1ccc(OC)cc1
2	-2.1	O=C1c2ccccc2C(O)(c2ccccc2)N1C1CC1 (stereo not drawn)
.	2.0	Cc1cccc(C)c1NC(=O)CSC(=O)c1ccc([N+](=O)[O-])cc1
-9	1.0	O=C(CSc1nnc2ccc3ccccc3n12)c1ccccc1
.	-1.0	NC1CCN(c2ncc(C(F)(F)F)cc2Cl)CC1
4	.	CN(C)c1ccc(/C=N/N2CC(O)=C(c3nc4ccccc4s3)C2=N)cc1
5	0.2	O=C(/C=C/c1cccs1)NC1CCS(=O)(=O)C1 (stereo not drawn)
10	.	CCOC(=O)c1c(C)[nH]c(C)c1C(=O)COC(=O)c1ccc(F)c(S(=O)(=O)N2CCOCC2)c1
-7	2.1	O=c1[nH]c2ccccc2n1CCCSc1nc2ccccc2[nH]1
-9	.	CCOC(=O)c1ccc(-c2ccc(/C=N/NC(=O)Cc3nc4ccccc4n3C)o2)cc1
